AmpC inh no det = Promiscuous and Specific Inhibitors of AmpC Beta-Lactamase (assay without detergent); P00811; AmpC nitrocefin hydrolysis, absorbance 480 nm, no detergent; potencies from a single point are estimates; Potency, µM (doses to about 28.7 µM), for the others: top-dose activity change, negative = inhibition; 71,000 tested, 1.8% active; AID 585, 2007; active = falling curve, for most hits resting on a single point; inconclusive = weak or doubtful change; inactive = flat or rising curve; also: % of control where 0% means no effect; about half of the hits show no inhibition at the top dose; a quarter of the inactives give rising signals
Target sequence (P00811 whole entry, looked up): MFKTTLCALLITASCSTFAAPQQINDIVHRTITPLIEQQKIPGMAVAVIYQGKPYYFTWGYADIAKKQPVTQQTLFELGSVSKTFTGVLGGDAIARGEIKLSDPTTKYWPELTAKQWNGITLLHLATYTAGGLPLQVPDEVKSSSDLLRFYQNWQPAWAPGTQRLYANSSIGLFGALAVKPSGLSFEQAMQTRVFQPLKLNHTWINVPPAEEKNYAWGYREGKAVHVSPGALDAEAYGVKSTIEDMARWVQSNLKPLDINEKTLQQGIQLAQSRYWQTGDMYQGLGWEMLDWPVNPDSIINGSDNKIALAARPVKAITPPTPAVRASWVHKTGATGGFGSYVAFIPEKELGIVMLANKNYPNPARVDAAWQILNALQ
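AmpC, 20 mM phosphate pH 7.0; 15 min cpd preinc, RT; start with nitrocefin (800 uM stock); A480 kinetic read, 20 s intervals, 4 min. No-enzyme wells = negative control.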
* marks the source's active call; other numbers are inactive results; & = joins results of further samples; [ ] = another dose, or the depositor's remark. Potency is read from the fitted curve at half-maximal effect. A portion of the library. The share of hits here may be higher or lower than overall.

SMILES	AmpC inh no det
Cc1ccc(C(=O)NC2CCS(=O)(=O)C2)cc1S(=O)(=O)N1CCCCC1 (stereo not drawn)	3%
COC(=O)C1=C(NC(=O)c2ccc(C)cc2)CCS1	-3%
COc1ccc(C(=O)Nc2ccc(S(=O)(=O)Nc3cc(C)nc(C)n3)cc2)c(OC)c1	20%
CCN(CC(=O)NC1CCCC1)S(=O)(=O)c1ccc(C)cc1	13%
CC(C)Oc1cc2oc(=O)c3c(c2cc1Cl)CCC3	-2%
CC(C)CCOC(=O)/C=C/c1ccccc1	2%
O=C(Nc1cccc(F)c1)c1c(F)c(F)c(F)c(F)c1F	-10%
Cc1ccc(Cn2c(=O)n(Cc3ccco3)c(=O)c3ccccc32)cc1	3%
O=C1CCCC2=C1C(c1ccccc1)CC(=O)N2c1ccccc1 (stereo not drawn)	18%
O=C(NCCc1ccccc1)C1CC(=O)N(C2CCCCCC2)C1 (stereo not drawn)	53%
Cc1nc2nc(-c3cccnc3)nn2c(C)c1Cl	-3%
O=C(CN1C(=O)CNC1=O)Nc1cccc(C(F)(F)F)c1	9%
Cc1ccc(C)c2[nH]c(=O)c(CN(Cc3ccc4c(c3)OCO4)Cc3nnnn3Cc3ccco3)cc12	69%
CCc1nc(N)c(C#N)c(-c2ccc(OC)c(OC)c2)c1C	15%
COc1cc(C2C3C(C)N(C)C(=O)N(C)C3N(C)C(=O)N2C)ccc1O (stereo not drawn)	-6%
O=C(N1CCOCC1)N1CCCC(c2nc(-c3cccs3)no2)C1 (stereo not drawn)	34%
CN1CCN(c2ncc3nc(-c4cccs4)c(=O)n(CCC#N)c3n2)CC1	64%
CCCCCOC(=O)Cn1c(N2CCCCCC2)nc2c1c(=O)[nH]c(=O)n2C	48%
Cc1c(C2(O)C(=O)Nc3ccc(F)cc32)c(=O)n(-c2ccccc2)n1C (stereo not drawn)	1%
COc1ccc(-n2nnnc2S(=O)(=O)Cc2ccc(C(=O)O)cc2)cc1	0%
CCCn1c(-c2ccc(F)cc2)nc2c(N3CCN(Cc4nc(OC)cc(OC)n4)CC3)nc(C)nc21	134%
CCOC(=O)Cc1csc(NC(=O)c2c(-c3c(F)cccc3Cl)noc2C)n1	14%
COc1cccc(-c2ccc3ncnc(NC4CC4)c3c2)c1	73%
N#Cc1ccc(CN2CCN(C(=O)c3ccccc3)CC2)c(Cl)c1	39%
Nc1nc2sc3c(c2c(=O)s1)CCCC3	-22%

Some of the entries above, set out differently.
O=C(NCCc1ccccc1)C1CC(=O)N(C2CCCCCC2)C1 (stereo not drawn)
  AmpC inh no det = 53%
Cc1nc2nc(-c3cccnc3)nn2c(C)c1Cl
  AmpC inh no det = -3%

Entries from the list above that have four or more nitrogen atoms:
SMILES	AmpC inh no det
COc1ccc(C(=O)Nc2ccc(S(=O)(=O)Nc3cc(C)nc(C)n3)cc2)c(OC)c1	20%
Cc1nc2nc(-c3cccnc3)nn2c(C)c1Cl	-3%
Cc1ccc(C)c2[nH]c(=O)c(CN(Cc3ccc4c(c3)OCO4)Cc3nnnn3Cc3ccco3)cc12	69%
COc1cc(C2C3C(C)N(C)C(=O)N(C)C3N(C)C(=O)N2C)ccc1O (stereo not drawn)	-6%
O=C(N1CCOCC1)N1CCCC(c2nc(-c3cccs3)no2)C1 (stereo not drawn)	34%
CN1CCN(c2ncc3nc(-c4cccs4)c(=O)n(CCC#N)c3n2)CC1	64%
CCCCCOC(=O)Cn1c(N2CCCCCC2)nc2c1c(=O)[nH]c(=O)n2C	48%
COc1ccc(-n2nnnc2S(=O)(=O)Cc2ccc(C(=O)O)cc2)cc1	0%
CCCn1c(-c2ccc(F)cc2)nc2c(N3CCN(Cc4nc(OC)cc(OC)n4)CC3)nc(C)nc21	134%

More structures follow.
SMILES	AmpC inh no det
O=C(CCCC(=O)N1CCN(c2ccccc2F)CC1)N1CCN(c2ccccc2F)CC1	131%
CCc1c(C(=O)Nc2ccc(OC)c(Cl)c2)[nH]c(C)c1C(C)=O	-6%
Cc1cccc(C)c1NS(=O)(=O)c1c(C)[nH]c(=O)[nH]c1=O	-13%
COCCCNC(=O)CS(=O)Cc1nc(-c2cccc(OC)c2)oc1C (stereo not drawn)	33%
CC(=O)Nc1ccc(S(=O)(=O)NCCc2cc3c(C)ccc(C)c3[nH]c2=O)cc1	5%
CCOC(=O)N1CCN(C2=CC(=O)OC23CCCCC3)CC1	1%
COc1ccc(C2NC(=O)NC3=C2CCc2ccccc23)cc1 (stereo not drawn)	6%
OC[C@H]1O[C@H](n2cnc3c(NC4CCCC4)nc(Cl)nc32)[C@@H](O)[C@@H]1O	33%
CC1CCN(C(=O)CN(c2ccc3c(c2)OCO3)S(C)(=O)=O)CC1	23%
Cc1cc2ncn(C(=O)N3CCCCC3)c2cc1C	15%
Cn1cc(-c2nc3cncnc3n(CCN)c2=O)c2ccccc21	74%
COc1ccc(CN2C(=O)CCC2(C)C(=O)NCc2cccnc2)c(OC)c1 (stereo not drawn)	5%
CC1(C)NC(=O)N(CC(O)COc2cccc(F)c2)C1=O (stereo not drawn)	19%
Cc1nc(NCc2ccccn2)c2ccccc2n1	-10%
O=S(=O)(c1ccc(Cl)c(F)c1)N1CCC(c2nc(-c3ccncc3)no2)CC1	47%
N[C@@H](C(=O)O)c1ccc(C(=O)O)cc1	-1%&29%
O=C1COc2ccc(C(=O)COC(=O)Cn3cnc4ccccc43)cc2N1	10%
Cc1ccccc1OCC(=O)Nc1ccccc1N1CCCCC1	-2%
CCCn1c(C)nc2c(NCCCN(CCO)CCO)nc(C)nc21	22%
Oc1c(CN2CCCCC2)cc(COCc2ccccc2)c2cccnc12	36%
CCCS(=O)(=O)N1CCCC(c2nc(-c3cccc(OC)c3)no2)C1 (stereo not drawn)	75%
O=C(O)C1CC(=O)N(Cc2ccc3c(c2)OCO3)C1 (stereo not drawn)	-7%
CC(C)CCNC(=O)C1CCN(C(=O)N(C)C)CC1	-11%
CCCCCCNc1cc2n(c(=O)n1)CCc1cc(OC)c(OC)cc1-2	33%
Cc1nc2ccccc2c(=O)n1NC(=O)C1CCCCC1	12%

(continued)
SMILES	AmpC inh no det
Cc1ccc(-c2noc(CCC(=O)NC3CCN(Cc4ccccc4)CC3)n2)cc1	68%
N#CC(C(=O)OCc1ccccc1)c1nc2ccccc2nc1N1CCOCC1 (stereo not drawn)	72%
CCC(=O)N(Cc1cc2cc(OC)ccc2[nH]c1=O)c1ccc(C)cc1C	43%
CCOC(=O)c1sc(NC(C)=O)cc1C	2%
Cc1nc(C)c(C(=O)C2=C(O)C(=O)N(CCN(C)C)C2c2cccs2)s1 (stereo not drawn)	-9%
Cn1c(C(=O)NCCN2CCCCCC2)cc2c(=O)n(C)c3ccccc3c21	128%
CCCC12CN3CC(C)(CN(C1)C3c1ccc(OC(C)C)cc1)C2=O (stereo not drawn)	55%
COc1ccc(C(c2nnnn2CCc2ccccc2)N2CCN(C3CCCC3)CC2)cc1OC (stereo not drawn)	43%
O=C1C(C=NCC2CCCO2)=C(O)c2ccccc21 (stereo not drawn)	-2%
O=c1[nH]c(CSc2nnc(-c3ccco3)n2-c2ccccc2)nc2sc3c(c12)CCC3	45%
COC(=O)[C@@]1(Cc2ccc(F)cc2)[C@H]2c3cc(C(=O)N(C)C)n(CCc4c[nH]c5ccc(OC)cc45)c3C[C@H]2CN1C(=O)c1ccccc1	23%
CC(C)CC(=O)NC1(C(F)(F)F)C(=O)Nc2c1c(=O)n(C)c(=O)n2C (stereo not drawn)	-6%
Cc1c(C(=O)NCC2CCCO2)oc2ccc(S(=O)(=O)N3CCCCC3)cc12 (stereo not drawn)	52%
CCSc1ncnc2c1oc1ccccc12	-6%
COc1cc(OC)cc(C(=O)Nc2ccc3c(c2)COC3=O)c1	8%
N#Cc1ccc(CN2CCCC3(CCN(C(=O)Oc4ccccc4)CC3)C2)cc1	56%
COc1ccc(C(=O)N2CCC3(CC2)CN(C(=O)Nc2cccc(C#N)c2)C3)cc1	-8%
C=CCc1cc(OC)c2c(c1)OCO2	4%
COCCCN1C(=O)c2[nH]nc(-c3cc(C)cc(C)c3O)c2C1c1ccc(O)c(OC)c1 (stereo not drawn)	86%
Cc1ccc(Cl)cc1N1CCN(C(=O)CCC(=O)O)CC1	7%
CCOc1ccccc1C(=O)NCCCN1CCN(CCCNC(=O)c2ccccc2OCC)CC1	76%
COc1ccc(-n2c(Cc3cccn3C)nnc2SCC(=O)NCc2ccccc2Cl)cc1	84%
O=C(Cn1cc(C(=O)C2CC2)c2ccccc21)NCC1CCCO1 (stereo not drawn)	5%
COc1ccc(NC(=O)N2CC3(CCN(C(=O)c4c(C)noc4C)CC3)C2)cc1	12%
O=C(c1ccco1)N1CCN(C(=O)C2CCN(S(=O)(=O)c3cnc[nH]3)CC2)CC1	7%

(more compounds)
SMILES	AmpC inh no det
O=c1[nH]nnc2sc3c(c12)CCCC3	-10%
CCOC(=O)CN1C(=O)C(O)(CC(=O)c2ccccn2)c2ccccc21 (stereo not drawn)	16%
Cc1cnn(-c2nc(-c3cccs3)cc(C(F)(F)F)n2)c1	44%
O=C(COC(=O)c1ccco1)NC1CCCCC1	2%
Cc1cc(C)n2nc(C(=O)OCCOc3ccc(Br)cc3)nc2n1	90%
CCCn1nnnc1SCC(=O)N1CCOCC1	-1%
Cc1cc(C)nc(-n2nc(C)c(C3(O)C(=O)Nc4ccccc43)c2N)n1 (stereo not drawn)	18%
COc1ccc(Oc2ncc3nc(C)c(=O)n(C4CC4)c3n2)cc1	39%
CCOC(=O)C1CCCN(CC(=O)NC2CC2)C1 (stereo not drawn)	8%
Cn1cccc1C(=O)N1CCC2(CCN(C(=O)Nc3cccc(C#N)c3)CC2)CC1	77%
NS(=O)(=O)c1ccc(CCNC(=O)Nc2ccc(Cl)cc2)cc1	-7%
CCOc1cccc(C(=O)N(Cc2ccco2)C2CCS(=O)(=O)C2)c1 (stereo not drawn)	6%
CCOC(=O)Cc1csc2nc3sc(C)c(C)c3c(=O)n12	-1%
COc1cccc(=O)c2c(C)oc(C)c12	24%
Cc1cc(C)c2nc(N)sc2c1	-11%
COc1ccccc1C(=O)n1nc(C)cc1C	-6%
CN(CCNC(=O)c1cn(C)c2ccc(S(=O)(=O)N(C)C)cc2c1=O)CCc1ccccc1	4µM*[single pt active]
CCC(NS(=O)(=O)c1ccc(C)cc1)C(=O)O (stereo not drawn)	-6%
N/N=C1/c2ccccc2N[C@H]1OC(=O)Nc1ccccc1	-18%[5.75 µM]
C[N+]1(C)CCN(c2ccccc2)CC1	-24%
CCC(C)NC(=O)C1CCC(=O)N(c2ccc3c(c2)OCO3)C1c1ccc(OC)cc1 (stereo not drawn)	50%
NC(=O)c1c(NC(=O)CN2CCOCC2)sc2c1CCC2	15%
O=S(=O)(c1ccc2c(c1)nc(COc1ccc(Cl)cc1)n2CC1CCCO1)N1CCOCC1 (stereo not drawn)	111%
Cc1[nH]c(=S)n(CC2CCCO2)c1C (stereo not drawn)	-9%
COc1ccc(Cn2nnnc2C(c2cccnc2)N2CCN(c3ccc(O)cc3)CC2)cc1 (stereo not drawn)	51%

Next part
SMILES	AmpC inh no det
O=C(C1CCCN(S(=O)(=O)c2cccnc2)C1)N1CCN(c2ccccn2)CC1 (stereo not drawn)	4µM*[single pt active]
CN1C(=O)N(C)C(=O)C2(Cc3c(nc4ccccn4c3=O)N3CCc4ccccc4C32)C1=O (stereo not drawn)	89%
CSCCC(NC(=O)c1ccc(C)o1)C(=O)O (stereo not drawn)	6%
CC1(C)CC(=O)C(C2(O)C(=O)NC(=O)NC2=O)=C(O)C1	-2%
O[C@H](CN1CCN(c2cccc(Cl)c2)CC1)C(c1ccccc1)c1ccccc1	31%&12%
Cc1ccccc1-c1cncnc1NCCN1CCOCC1	24%
CC(C)Cn1nc(NS(=O)(=O)c2ccccc2)c2cc3ccccc3nc21	-2%
CCCNS(=O)(=O)c1ccc(OCC(=O)NCCCOC)cc1	4%
COc1cc2ccccc2cc1C(=O)Nc1cccnc1	37%
CCC(=O)N1CCN(c2ccc(NC(=O)c3ccc4c(c3)OCO4)cc2)CC1	14%
O=C(Nc1nccs1)C1CCN(S(=O)(=O)c2ccc3c(c2)OCCCO3)CC1	5%
Cc1oc2cc(O)ccc2c(=O)c1N1C(=O)c2ccccc2C1=O	-9%
Cc1cc(C(=O)COc2ccc(-c3nnco3)cc2)c(C)n1Cc1ccccc1	39%
c1ccc(Cn2nnnc2C(c2cccs2)N2CCSCC2)cc1 (stereo not drawn)	12%
c1ccc2c(c1)nc(N1CCN(C3CCCCC3)CC1)c1nnnn12	21%
O=C(Cc1ccsc1)NCC(c1ccco1)N1CCCCC1 (stereo not drawn)	0%
COc1ccc(-n2cnnc2)cc1	6%
O=C(CN(c1ccc(F)cc1)S(=O)(=O)c1ccc2c(c1)OCCO2)NCc1ccccn1	37%
CCCCOCCCNS(=O)(=O)c1ccccc1	3%
CCc1ccccc1N(CC)C(=O)c1cn(C)c(=O)c2cc(OC)c(OC)cc12	86%
CCCCNc1nc(C)nc2c1nc(-c1ccccc1)n2CCN1CCCC1	62%
Cc1c(C(=O)N2CC(C)OC(C)C2)sc2nc(-c3ccccc3)cn12 (stereo not drawn)	60%
O=c1c(-c2ccc(Cl)cc2)nc2cnc(N3CCOCC3)nc2n1CCc1ccccc1	2%
O=C(Nc1cccc(-c2nnc(-c3ccccc3)o2)c1)C1CCCO1 (stereo not drawn)	40%
O=C(Cc1ccc2cccnc2c1)c1ccc(O)cc1O	-21%
CCCCn1cnc2c(cnn2-c2ccc(Cl)cc2)c1=O	7%
